High-throughput results as filed in PubChem BioAssay.
LYP inhibition: LYP phosphatase inhibitors, primary screen, biochemical, DiFMUP fluorescence, recombinant catalytic domain, 10 µM (AID 606). Tyrosine-protein phosphatase non-receptor type 22 (Homo sapiens). recombinant LYP catalytic domain, DiFMUP fluorescence; higher % means a stronger effect. one-dose inhibition, % at 10 µM; IC50 in µM for titrated hits. 52,000 tested, under 10 active;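 active means IC50 under 40 µM in the dose-response test; inactive means IC50 of 40 µM or more, or never dose-tested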
Spn MK inh: S. pneumoniae MK inhibitors, primary screen, biochemical, PK/LDH-coupled NADH absorbance. mevalonate kinase [Streptococcus pneumoniae D39]. purified MK, PK/LDH-coupled NADH absorbance 340 nm. inhibition, % at 10 µM. 65,000 tested, 0.48% active;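 active means ranked among the strongest by inhibition in the single 10 µM screen, a fixed top-ranked set picked for dose follow-up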; further: no value below 0 was filed
DPM-DC inhibit: S. pneumoniae DPM-DC inhibitors, primary screen, biochemical, PK/LDH-coupled NADH fluorescence. diphosphomevalonate decarboxylase (Streptococcus pneumoniae D39). purified DPM-DC. calls only at 10 µM. 65,000 tested, 0.49% active. AID 556, 2006;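 active means the 320 compounds with the highest percent inhibition in the single-dose primary screen, excluding strongly autofluorescent ones, cut at about 32% in these data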;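 further: kinetic rate of NADH fluorescence loss reporting ADP formed by the decarboxylase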
Spn PMK inh: S. pneumoniae PMK inhibitors, primary screen, biochemical, mevalonate pathway, pilot trial included | purified PMK, PK/LDH-coupled NADH absorbance 340 nm | inhibition, % at 10 µM | phosphomevalonate kinase (Streptococcus pneumoniae D39) | 65,000 tested, 0.49% active;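 active means top-ranked compounds by inhibition in the single 10 µM screen, taking a fixed number of the strongest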;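 further: 0% = full reaction with DMSO carrier and 100% = background rate without enzyme reaction; no value below 0 was filed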
Bfl-1 displacement: Bfl-1 inhibitors, primary screen, biochemical, fluorescence polarization, FITC-Bid, mouse (AID 432); Bcl-2-related protein A1 (Mus musculus); 64,000 tested, 0.02% active; FITC-Bid BH3 peptide fluorescence polarization displacement; higher % means a stronger effect; displacement, % at 20 µM; hits with a dose series show IC50 in µM; in the data active means a potency from the dose series; inactive means the rest, 99 in 100 with displacement below about 15%; further: strong numbers were not always called active
Spn PMK inh pilot replicates: also measured in Spn PMK inh; calls as there; inhibition, %; measured here: pilot screen replicates
Spn MK inh pilot replicates: also measured in Spn MK inh; calls as there; inhibition, %; measured here: pilot screen replicates
DPM-DC inhibit pilot screen %: also measured in DPM-DC inhibit; calls as there; inhibition, %; measured here: pilot screen trials
The depositor's hits bear a star; i = inactive; / = no result given. These rows are one share of the data; rates above refer to the full screens.

SMILES | LYP inhibition | Spn MK inh | Spn MK inh pilot replicates | DPM-DC inhibit | DPM-DC inhibit pilot screen % | Spn PMK inh | Spn PMK inh pilot replicates | Bfl-1 displacement
C[C@H](CS)C(=O)N1CCC[C@H]1C(=O)O | 15% | 1 | 3.0 | i | 7.0 | 11 | 5.5 | -2%
Cc1cc(NS(=O)(=O)c2ccc(N)cc2)no1 | 2% | 0 | 0.0 | i | 0.0 | 0 | 0.0 | 10%
CO[C@H]1C=CO[C@@]2(C)Oc3c(C)c(O)c4c(O)c(c(C=NN5CCN(C)CC5)c(O)c4c3C2=O)NC(=O)C(C)=CC=C[C@H](C)[C@H](O)[C@@H](C)[C@@H](O)[C@@H](C)[C@H](OC(C)=O)[C@@H]1C | 10% | 10 | 0.0 | i | 9.0 | 3 | 1.0 | -22%
COc1c2occc2cc2ccc(=O)oc12 | / | 0 | / | i | / | 7 | / | 4%
CC(C)C1N=C2c3ccccc3N=C(SCC(=O)c3ccc(O)c(O)c3)N2C1=O (centres undefined) | 7% | 6 | / | i | / | 3 | / | 2%
Clc1ccccc1-c1nc(-c2ccccc2)n[nH]1 | 2% | 1 | / | i | / | 4 | / | -3%
CC(C)(C)c1cc(Br)ccc1OCC(=O)Nc1ncn[nH]1 | -2% | 2 | / | i | / | 0 | / | -6%
COC(=O)c1cc(-c2c[nH]c3ccccc23)n[nH]1 | 0% | 2 | / | i | / | 1 | / | 4%
COc1ccc(-c2nc3n(n2)C(=O)CC(c2ccco2)S3)cc1 (centres undefined) | 7% | 9 | / | i | / | 0 | / | 6%
Cc1cccc(C)c1OCC(=O)Nc1ncn[nH]1 | 6% | 9 | / | i | / | 6 | / | -8%
COc1ccc2c(c1)CCc1c-2n[nH]c1C(=O)O | 1% | 9 | / | i | / | 17 | / | -2%
O=C(O)CC(O)C(=O)O (centres undefined) | 0% | 0 | / | i | / | 1 | / | 2%

In another format: entries from further up.
| SMILES | LYP inhibition | Spn MK inh | Spn MK inh pilot replicates | DPM-DC inhibit | DPM-DC inhibit pilot screen % | Spn PMK inh | Spn PMK inh pilot replicates | Bfl-1 displacement |
| --- | --- | --- | --- | --- | --- | --- | --- | --- |
| Cc1cc(NS(=O)(=O)c2ccc(N)cc2)no1 | 2% | 0 | 0.0 | i | 0.0 | 0 | 0.0 | 10% |
| CO[C@H]1C=CO[C@@]2(C)Oc3c(C)c(O)c4c(O)c(c(C=NN5CCN(C)CC5)c(O)c4c3C2=O)NC(=O)C(C)=CC=C[C@H](C)[C@H](O)[C@@H](C)[C@@H](O)[C@@H](C)[C@H](OC(C)=O)[C@@H]1C | 10% | 10 | 0.0 | i | 9.0 | 3 | 1.0 | -22% |
| COc1c2occc2cc2ccc(=O)oc12 | / | 0 | / | i | / | 7 | / | 4% |
| CC(C)C1N=C2c3ccccc3N=C(SCC(=O)c3ccc(O)c(O)c3)N2C1=O (centres undefined) | 7% | 6 | / | i | / | 3 | / | 2% |
| Clc1ccccc1-c1nc(-c2ccccc2)n[nH]1 | 2% | 1 | / | i | / | 4 | / | -3% |
| CC(C)(C)c1cc(Br)ccc1OCC(=O)Nc1ncn[nH]1 | -2% | 2 | / | i | / | 0 | / | -6% |
| COC(=O)c1cc(-c2c[nH]c3ccccc23)n[nH]1 | 0% | 2 | / | i | / | 1 | / | 4% |
| COc1ccc(-c2nc3n(n2)C(=O)CC(c2ccco2)S3)cc1 (centres undefined) | 7% | 9 | / | i | / | 0 | / | 6% |
| Cc1cccc(C)c1OCC(=O)Nc1ncn[nH]1 | 6% | 9 | / | i | / | 6 | / | -8% |
